High-throughput results: PubChem BioAssay, Broad Institute
Vaccinia inh: blocks a specific stage of Vaccinia orthopoxvirus infection, primary screen, cell-based, single point | AID 1053133, 2014 | activity change (mCherry), % (concentration not given with the values) | Vaccinia-infected cells, mCherry/Venus stage reporter fluorescence; active compounds read low; some inactives read as strong as hits | hit rate 0.01% among 89,000;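 active means mCherry past -33% and 40 or more points under the early reporter, replicates agreeing; inconclusive means past -33% without that gap or agreement; tested in A549 cells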;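 further: scaled between vehicle wells and reference inhibitor wells; 23 nL library stock went into each well; one replicate is shown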
Vaccinia inh Venus: second read-out of Vaccinia inh, no call of its own (marks repeat the call); activity change (Venus), %; measured here: Venus reporter, other viral stage;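 negative = less Venus signal; first of two replicates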
The depositor's hits bear a star; ? = inconclusive; nt = not tested or not shown. These rows are one share of the data; the hit share may differ from the screen's.

Compound,Vaccinia inh,Vaccinia inh Venus
CCS(=O)(=O)Nc1ccc2c(c1)C(=O)N(C)C[C@@H](OC)[C@H](C)CN[C@@H](C)CO2,10,8
CS(=O)(=O)Nc1ccc2c(c1)[C@@H]1C[C@@H](CC(=O)NCc3ccccc3F)O[C@H](CO)[C@@H]1O2,13,9
C[C@H](CO)N1C[C@H](C)[C@@H](CN(C)CC2CC2)Oc2cc(-c3cncnc3)ccc2S1(=O)=O,22,17
COc1ccccc1S(=O)(=O)N(C)C[C@H]1OCc2cnnn2CCCC(=O)N([C@@H](C)CO)C[C@H]1C,-10,-9
COc1ccc(-c2cnc3c(c2)C(=O)N([C@H](C)CO)C[C@@H](C)[C@@H](CN(C)Cc2cccnc2)O3)cc1,13,-1
CC(C)NC(=O)N1[C@@H](C#N)[C@H](c2ccc(C#CC3CCCCC3)cc2)[C@@H]1CO,-35,-26
CC(=O)N1CC[C@H]2[C@@H]1c1cc(-c3ccc(C#N)cc3)ccc1N(C)[C@H]2CO,2,11
Cc1noc(C)c1NC(=O)Nc1ccc2c(c1)C(=O)N([C@@H](C)CO)C[C@@H](C)[C@@H](CN(C)S(=O)(=O)c1ccccc1)OCCCC[C@@H](C)O2,33,15
Cc1ccc(S(=O)(=O)Nc2ccc3c(c2)CC(=O)N([C@H](C)CO)C[C@@H](C)[C@H](CN(C)C(=O)Nc2c(C)noc2C)O3)cc1,16,7
CC(=O)n1cc([C@H]2C=C(C(=O)N3CCOCC3)O[C@@H](OCc3ccc(CO)cc3)C2)c2ccccc21,24,7
C[C@@H]1CN([C@@H](C)CO)C(=O)c2c(c3ccccc3n2C)-c2ccccc2CO[C@H]1CN(C)Cc1ccc(O)cc1,?,nt
CN1C[C@@H](O)COC[C@@H]2O[C@@H](CC(=O)NC3CCCC3)CC[C@H]21,7,7
C[C@@H]1CCCCO[C@H](CN(C)CC2CC2)[C@H](C)CN([C@@H](C)CO)C(=O)c2cc(NC(=O)Nc3ccc(F)cc3)ccc2O1,-17,-10
O=C(C[C@H]1C=C[C@H](NC(=O)Nc2ccc(C(F)(F)F)cc2)[C@@H](CO)O1)NCc1cc(F)cc(F)c1,-19,-15
COc1ccc(C#Cc2ccc3c(c2)[C@H]2[C@H](CCN2C(=O)c2ccccn2)[C@@H](CO)N3)cc1,-16,-4
COCCNC(=O)C[C@H]1C=C[C@H](NC(=O)NC2CCCC2)[C@H](CO)O1,4,5
COc1ccc(S(=O)(=O)Nc2cccc3c2O[C@H](CN(C)S(=O)(=O)c2cn(C)cn2)[C@H](C)CN([C@@H](C)CO)C3=O)cc1,-2,1
C[C@H]1CN([C@@H](C)CO)S(=O)(=O)c2ccc(-c3cccc(C#N)c3)cc2O[C@H]1CN(C)C,25,5
N#C[C@@H]1[C@@H](c2ccc(C#CC3CCCC3)cc2)[C@H](CO)N1S(=O)(=O)c1ccccc1,-25,-15
C[C@@H]1CCCCO[C@H](CN(C)C(=O)Nc2ccc(F)cc2)[C@H](C)CN([C@@H](C)CO)C(=O)c2cc(NC(=O)Nc3ccc(C(F)(F)F)cc3)ccc2O1,-10,0
C[C@@H]1CN([C@@H](C)CO)C(=O)c2cc(NC(=O)C3CC3)ccc2O[C@H]1CN(C)C(=O)Nc1ccc(F)cc1,19,15
CC(C)NC(=O)Nc1ccc2c(c1)CC(=O)N([C@H](C)CO)C[C@@H](C)[C@@H](CN(C)Cc1ccc(-c3ccccc3)cc1)O2,?,nt
C[C@@H]1CN([C@@H](C)CO)C(=O)c2cc(NS(=O)(=O)c3ccc(F)cc3)ccc2O[C@@H]1CN(C)S(=O)(=O)c1cn(C)cn1,5,3
CC=Cc1ccc2n(c1=O)C[C@@H]1[C@@H](CO)[C@H](C(=O)N[C@@H](C)c3ccccc3)N(C(=O)c3ccccn3)[C@H]21 (mixture of isomers),9,10
C[C@H](CO)N1C[C@H](C)[C@@H](CN(C)Cc2ccc3c(c2)OCO3)Oc2ccc(NS(C)(=O)=O)cc2C1=O,-9,-3
COCC(=O)Nc1ccc2c(c1)C(=O)N(C)C[C@@H](OC)[C@@H](C)CN(Cc1ccccn1)[C@H](C)CO2,1,3
C[C@@H]1CN([C@@H](C)CO)C(=O)c2cccc(NS(=O)(=O)c3cn(C)cn3)c2O[C@H]1CN(C)C(=O)Nc1cccc2ccccc12,42,17
CCN1[C@@H]2c3ccc(C4=CCCCC4)c(=O)n3C[C@@H]2[C@@H](CO)[C@@H]1C(=O)N(C)C,17,15
O=C(C[C@H]1CC[C@H](NC(=O)NC2CCCCC2)[C@@H](CO)O1)NCc1ccc(Cl)cc1,-1,4
C[C@@H]1CN([C@H](C)CO)C(=O)Cc2cc(NC(=O)Nc3ccccc3)ccc2O[C@@H]1CN(C)C(=O)Nc1ccc(F)cc1,16,18

Three of the compounds above, field by field:
COCC(=O)Nc1ccc2c(c1)C(=O)N(C)C[C@@H](OC)[C@@H](C)CN(Cc1ccccn1)[C@H](C)CO2
- Vaccinia inh = 1
- Vaccinia inh Venus = 3
C[C@@H]1CN([C@@H](C)CO)C(=O)c2cccc(NS(=O)(=O)c3cn(C)cn3)c2O[C@H]1CN(C)C(=O)Nc1cccc2ccccc12
- Vaccinia inh = 42
- Vaccinia inh Venus = 17
CCN1[C@@H]2c3ccc(C4=CCCCC4)c(=O)n3C[C@@H]2[C@@H](CO)[C@@H]1C(=O)N(C)C
- Vaccinia inh = 17
- Vaccinia inh Venus = 15

The main list resumes; the 4 compounds before the break are reprinted first.
Compound,Vaccinia inh,Vaccinia inh Venus
C[C@@H]1CN([C@@H](C)CO)C(=O)c2cccc(NS(=O)(=O)c3cn(C)cn3)c2O[C@H]1CN(C)C(=O)Nc1cccc2ccccc12,42,17
CCN1[C@@H]2c3ccc(C4=CCCCC4)c(=O)n3C[C@@H]2[C@@H](CO)[C@@H]1C(=O)N(C)C,17,15
O=C(C[C@H]1CC[C@H](NC(=O)NC2CCCCC2)[C@@H](CO)O1)NCc1ccc(Cl)cc1,-1,4
C[C@@H]1CN([C@H](C)CO)C(=O)Cc2cc(NC(=O)Nc3ccccc3)ccc2O[C@@H]1CN(C)C(=O)Nc1ccc(F)cc1,16,18
CO[C@@H]1CN(C)C(=O)c2cc(NS(C)(=O)=O)ccc2OC[C@@H](C)N(C(=O)CC2CC2)C[C@H]1C,3,2
C[C@H]1CN([C@@H](C)CO)C(=O)c2ccccc2-c2ccccc2CO[C@H]1CN(C)C(=O)Oc1ccccc1,0,1
COc1ccc(S(=O)(=O)N(C)C[C@@H]2OCCCC[C@H](C)Oc3ccc(N(C)C)cc3C(=O)N([C@@H](C)CO)C[C@@H]2C)cc1,-28,-20
COc1cccc(S(=O)(=O)N[C@H]2C=C[C@@H](CC(=O)NC3CCC3)O[C@H]2CO)c1,3,5
C[C@@H]1CN([C@@H](C)CO)C(=O)Cc2cc(NS(=O)(=O)c3cccs3)ccc2O[C@H]1CN(C)CC1CC1,3,10
CC(C)NC(=O)N(C)C[C@H]1Oc2c(NC(=O)Nc3ccc(C(F)(F)F)cc3)cccc2C(=O)N([C@@H](C)CO)C[C@@H]1C,-24,-15
C[C@@H]1CN([C@@H](C)CO)S(=O)(=O)c2ccc(-c3ccncc3)cc2O[C@@H]1CN(C)Cc1ccc(Oc2ccccc2)cc1,?,nt
CCCN(C)C[C@@H]1OCCCC[C@@H](C)Oc2ccc(NC(=O)Nc3ccc(C(F)(F)F)cc3)cc2C(=O)N([C@H](C)CO)C[C@@H]1C,10,7
COCC(=O)N1[C@H](C#N)[C@@H](c2ccccc2-c2ccccc2F)[C@H]1CO,14,0
Cc1noc(C)c1NC(=O)N(C)C[C@H]1OCCCC[C@@H](C)Oc2ccc(NC(=O)CCC(F)(F)F)cc2C(=O)N([C@H](C)CO)C[C@@H]1C,21,8
C[C@@H]1CN([C@H](C)CO)C(=O)c2cc(NC(=O)CCN3CCOCC3)ccc2O[C@@H]1CN(C)C(=O)Nc1ccc(C(F)(F)F)cc1,1,2
C[C@@H]1CN([C@H](C)CO)C(=O)c2cc(NC(=O)NC3CCCCC3)ccc2O[C@@H]1CN(C)Cc1ccncc1,8,4
C[C@@H]1CN([C@@H](C)CO)C(=O)c2cc(C3=CCCC3)cnc2O[C@H]1CN(C)Cc1ccc(F)cc1,-31,-27
C[C@H](CO)N1C[C@H](C)[C@H](CN(C)C(=O)NC2CCCC2)Oc2ncc(-c3ccccc3F)cc2C1=O,11,5
COc1ccc(-c2ccc3n(c2=O)C[C@H]2[C@H](CO)[C@@H](C(=O)N(C)C)N(CC4CCOCC4)[C@@H]32)cc1,-2,3
O=C(NC1CCC1)[C@@H]1[C@@H](CO)[C@@H]2Cn3c(ccc(C4=CCCCC4)c3=O)[C@H]1N2CC1CC1,-5,-4
C[C@H]1CN([C@@H](C)CO)C(=O)c2cc(N(C)C)ccc2O[C@H]1CN(C)C(=O)Nc1ccc(F)cc1,4,8
C[C@@H]1CCCCO[C@@H](CN(C)C(=O)NC2CCCCC2)[C@H](C)CN([C@H](C)CO)C(=O)c2cc(NS(=O)(=O)c3cccs3)ccc2O1,-29,-28
C[C@H]1CN([C@@H](C)CO)C(=O)c2cc(C3=CCCCC3)cnc2O[C@@H]1CN(C)C(=O)c1cccc(F)c1,-25,-22
C[C@H]1CN([C@@H](C)CO)C(=O)c2cc(NC(=O)NC3CCCCC3)ccc2O[C@H]1CN(C)C(=O)Nc1ccccc1,-1,-1
O=C(c1ccccc1)N1C[C@H]2[C@@H](c3ccccc31)[C@H](CO)N2C(=O)c1ccccn1,17,11
C[C@@H]1CN([C@H](C)CO)S(=O)(=O)c2ccc(-c3cccc(C#N)c3)cc2O[C@@H]1CN(C)C(=O)C1CC1,-2,-12
O=C(c1ccccc1)N1CC[C@@H]2[C@H](CO)Nc3ccc(C#CC4CCCCC4)cc3[C@@H]21,-15,-20
CO[C@@H]1CN(C)C(=O)c2cc(NS(=O)(=O)c3ccc(-c4ccccc4)cc3)ccc2OC[C@H](C)NC[C@H]1C,?,nt
OC[C@H]1[C@H](c2ccccc2)C2(CN(Cc3ccncc3)C2)N1Cc1ccncc1,10,16
COc1ccc(S(=O)(=O)Nc2ccc3c(c2)C(=O)N([C@H](C)CO)C[C@@H](C)[C@@H](CN(C)C(=O)Nc2ccc(C(F)(F)F)cc2)O3)cc1,-2,3
C[C@@H]1CN([C@H](C)CO)C(=O)c2cc(C3=CCCC3)cnc2O[C@H]1CN(C)C,9,3
O=C(NCC[C@H]1CC[C@@H](NS(=O)(=O)c2ccc(F)cc2)[C@@H](CO)O1)Nc1ccc(F)cc1,-11,-12
Cc1noc(C)c1NC(=O)Nc1ccc2c(c1)C(=O)N([C@H](C)CO)C[C@H](C)[C@H](CN(C)C(=O)NC(C)C)OCCCC[C@@H](C)O2,37,22
C[C@H](CO)N1C[C@H](C)[C@@H](CN(C)Cc2ccc(C(=O)O)cc2)Oc2ccc(NC(=O)Nc3cccc4ccccc34)cc2CC1=O,28,19
C[C@@H]1CN([C@@H](C)CO)S(=O)(=O)c2ccc(C#Cc3ccc(F)cc3)cc2O[C@@H]1CN(C)C(=O)NC1CCCC1,?,nt
C[C@H](CO)N1C[C@H](C)[C@@H](CN(C)Cc2ccc(Oc3ccccc3)cc2)Oc2c(NC(=O)Nc3cccc4ccccc34)cccc2C1=O,13,14
CCC(=O)N1CC2(C1)[C@H](c1ccccc1)[C@H](CO)N2S(=O)(=O)Cc1ccccc1,6,10
CC(=O)N1[C@H](CO)[C@H]2c3ccccc3N(S(=O)(=O)c3ccccc3)C[C@H]21,-8,-2
C[C@@H]1CN([C@@H](C)CO)C(=O)c2cc(-c3cccnc3)cnc2O[C@H]1CN(C)C(=O)Nc1ccccc1,9,3
CO[C@@H]1CN(C)C(=O)c2ccc(NC(=O)c3cccc(F)c3)cc2OC[C@H](C)NC[C@@H]1C,-3,-3
C[C@H]1CCCCO[C@H](CN(C)S(C)(=O)=O)[C@@H](C)CN([C@@H](C)CO)C(=O)c2cc(NS(=O)(=O)c3ccccc3)ccc2O1,15,4
CNC(=O)C[C@H]1CC[C@@H]2[C@H](COC[C@H](O)CN2C(=O)c2ccc3c(c2)OCO3)O1,15,7
CO[C@H]1CN(C)C(=O)c2ccc(NC(=O)c3ccccc3)cc2OC[C@H](C)N(C(=O)CN(C)C)C[C@H]1C,-3,9
COC(=O)[C@@H]1[C@@H](CO)[C@@H]2Cn3c(ccc(-c4cccc(F)c4)c3=O)[C@@H]2N1S(C)(=O)=O,17,4
Cc1noc(C)c1NC(=O)Nc1ccc2c(c1)C(=O)N([C@H](C)CO)C[C@H](C)[C@@H](CN(C)C)O2,12,11
O=C(C[C@@H]1C=C[C@H](NC(=O)C2CC2)[C@H](CO)O1)Nc1ccccc1,-3,-2
C[C@H]1CN([C@@H](C)CO)S(=O)(=O)c2ccc(-c3ccc(F)cc3)cc2O[C@@H]1CN(C)C(=O)Nc1ccccc1F,?,nt
CCS(=O)(=O)N1CCCCN2[C@@H](CO)[C@H](c3ccc(-c4ccccc4F)cc3)[C@@H]2C1,6,7
C[C@@H]1CN([C@@H](C)CO)C(=O)c2cccc(NC(=O)C3CCCCC3)c2O[C@H]1CN(C)C(=O)Nc1ccc(F)cc1,7,9
C[C@@H]1CN([C@H](C)CO)C(=O)c2cc(NS(=O)(=O)c3cccs3)ccc2O[C@@H]1CN(C)C(=O)Nc1ccc2c(c1)OCO2,14,3
CCNC(=O)C[C@@H]1CC[C@H]2[C@H](COc3ccc(NC(C)=O)cc3C(=O)N2C)O1,-5,-5
Cc1ccc(S(=O)(=O)Nc2ccc3c(c2)C(=O)N([C@H](C)CO)C[C@@H](C)[C@H](CN(C)S(=O)(=O)c2c(C)noc2C)OCCCC[C@H](C)O3)cc1,?,nt
